Compound activity deposited in PubChem by several laboratories.
BJeLR viability = MLPCN primary cell-based screen for lethality selective to Ras in HRASV12 cells | BJeLR (HRASV12) viability, CellTiter-Glo ATP luminescence, 48 h; reference of the scale not given here | inhibition, % (no concentration beside the values) | 300,000 compounds, 0.17% hits | AID 1554, 2009;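 active means replicate mean above 50%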;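 further: 50 nL library stock added to about 25 µL; numbers are from one replicate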
Autofluor counter = counter-screen for toxin protease inhibitors: compound fluorescence; 360,000 compounds, 3.1% hits; AID 624483; compound autofluorescence counterscreen, microsphere flow cytometry; active compounds read high; fluorescence intensity (test concentration not listed);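 active means at least 3 SD above the mean of all compounds, about 16000 in these data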;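 further: 100 nL of 1 mM stock went into each well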
Mtb hypoxia inh = PubChem AID 1159583 | M. tuberculosis hypoxia-regulated fluorescent reporter, fluorescence | fluorescence inhibition, % (no concentration beside the values) | 300,000 compounds, 0.1% hits;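 active means 35 to 45% if threefold the growth effect, above 45% if 1.5-fold the growth effect; inactive means the rest, general growth blockers included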;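 further: wells of about 50 µL received 100 nL stock; 0% = vehicle wells and 100% = reference inhibitor wells; whole bacteria with a GFP reporter of the hypoxia response; strong numbers were not always called active; many hits fall short of the cut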
Sa ugtP lethal = growth inhibition of ugtP-null S. aureus, primary screen, RN4220 ugtP deletion, OD600. growth inhibition, % (test concentration not listed). 16 h; some inactives read as strong as hits. AID 1259309, 2017. 330,000 compounds, 0.54% hits;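 active means z-score under -3 and OD600 up to 0.15 on both plates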;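 further: plate controls were untreated wells for no effect and antibiotic for full effect; wells of about 80 µL received 100 nL stock; the first replicate is given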
Sa RN4220 lethal = growth inhibition of S. aureus RN4220, primary screen, OD600; inhibition, % (no concentration beside the values); 16 h; 330,000 compounds, 0.33% hits;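 active means z-score of -3 or lower and OD600 up to 0.18 on both plates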;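 further: plate controls were untreated cells for no effect and reference antibiotic for full effect; stock transfer was 100 nL into about 80 µL; one replicate is shown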
PrP 5UTR inh = inhibition of PrP 5' UTR reporter expression | cell-based PrP 5' UTR mRNA reporter, plate reader | inhibition, % (no concentration beside the values) | 340,000 compounds, 0.35% hits | AID 488862, 2010;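 active means every replicate at 50% or more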;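 further: 0 = median of the neutral control wells; tested in H4 reporter cells; numbers are from one replicate; inactives centre near -14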
Mtb hypoxia inh growth = further read-out of Mtb hypoxia inh, marked with its call; growth inhibition, %; measured here: M. tuberculosis growth (absorbance);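 0% = vehicle and 100% = reference antibiotic; read after six days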
Numbers without * were called inactive; . = not tested or not shown. Random draw from the library; 3.9% or so of the library scored in one or more.

SMILES	BJeLR viability	Autofluor counter	Mtb hypoxia inh	Mtb hypoxia inh growth	Sa ugtP lethal	Sa RN4220 lethal	PrP 5UTR inh
Cc1noc(C)c1COc1ccc(C(=O)N2CCC(C)CC2)cc1	.	2795	-5	-9	11	7.3	-10
Cc1ccc(NC(=S)N2CCCCC2)cc1C	7	4635	15	4	2	3.8	-5
COC(=O)c1ccc(C(=O)NC2CC(C)(C)Cc3c2cnn3-c2ccc(F)cc2)nc1 (stereo not drawn)	20	5270	-5	-23	3	0.5	-40
Cc1c(NC(=O)c2cc(=O)[nH]c3ccccc23)c(=O)n(-c2ccccc2)n1C	-1	17099*	9	4	12	4.7	-8
COc1ccc(C2CC(=O)C=C(c3cccc(Br)c3)C2)cc1OC (stereo not drawn)	.	.	2	0	3	6.5	.
CC(C=NNC(=O)c1ccc(CN2c3cccc4cccc(c34)S2(=O)=O)cc1)c1ccccc1 (stereo not drawn)	.	.	4	4	-6	1.1	.
O=C(O)CC(CP(=O)(c1ccccc1)c1ccccc1)C(=O)O (stereo not drawn)	8	9798	12	1	-2	3.1	-6
O=C(CCC(=O)Nc1ccccc1Cl)N/N=C/c1c[nH]c2ccccc12	-9	10642	.	.	.	.	-2
CC(=O)c1cn(CC(=O)Nc2ccccc2F)c2ccccc12	-3	3073	.	.	.	.	-9
COc1ccc(C2=C(c3ccc([N+](=O)[O-])cc3)C(=O)OC2)cc1	5	4203	1	2	-1	0.8	-7
Cc1ccc(Cl)cc1NC(=S)N(CCCN1CCN(C)CC1)Cc1cccs1	-2	3056	14	5	3	4.4	2
CCc1ccccc1N(CC(=O)N1CCN(c2ccccc2)CC1)S(C)(=O)=O	-16	10124	9	4	7	4.9	-17
Cc1nn(-c2ccccc2)c(C)c1C=NNC(=O)c1cc(-c2ccc(Br)s2)[nH]n1	.	.	-2	8	-12	11	.
O=CNCC(=O)NCCc1ccc(Cl)cc1	2	5446	13	11	8	2.5	-10
O=C(CSc1nnc(NC2CCCCC2)s1)NN1C(=O)NC2(CCCCC2)C1=O	2	1909	-2	-4	3	5.2	-13
COCCCNc1oc(-c2cccs2)nc1S(=O)(=O)c1ccc(C)cc1	-4	4265	-6	0	7	13	-12
c1ccc(Cn2nnc3c(NCC4CCCO4)ncnc32)cc1 (stereo not drawn)	-17	11568	17	9	8	3.8	-20
COc1ccc(NC(=O)c2sccc2C)cn1	6	3347	1	4	5	9.4	-40
Cc1nnc(NC(=O)CN2CCN(Cc3ccccc3Cl)CC2)s1	-8	4313	-3	10	1	4.6	-13
Cc1cccc(C(=O)NNC(=O)CSc2nnc(C(C)C)n2C)c1	5	2835	5	-4	-1	3.7	-15
O=C(O)c1ccccc1SCCS(=O)(=O)c1ccc(Cl)cc1Cl	2	3279	-2	-5	10	8.7	-18
C=C(CCO)C1=CCN(S(=O)(=O)C(C)(C)C)[C@H]1CCO	.	3706	-4	5	-2	-2.0	-22
COc1ccccc1OCC(=O)Nc1ccccc1C(=O)NCc1cccnc1	-6	3041	-5	0	0	4.0	-1
Cc1ccccc1NC(=O)Cn1c(=O)oc2ccccc21	-1	.	8	2	12	3.8	3
Cc1cccc(Oc2ccc(S(=O)(=O)N3CCCCC3)cc2N)c1	0	5232	-5	8	18	-2.7	-16
COc1ccc(C(=O)OCn2nnc3ccccc3c2=O)cc1	5	6246	4	2	2	1.8	-36
CC1CCc2nn(CC(=O)N3CCCCCC3)cc2C1 (stereo not drawn)	-9	4554	.	.	14	5.0	-11
CCOc1ccc2nc(NC(=O)C(NS(=O)(=O)c3cccc4nsnc34)C(C)C)sc2c1 (stereo not drawn)	-10	5088	-1	7	8	3.3	-18
c1ccc(-c2csc3nnc(SCc4ccc5c(c4)OCO5)n23)cc1	1	4354	.	.	11	12	-13
Cc1nn(C)c(C(=O)N/N=C/c2cccnc2)c1Br	-18	6162	.	.	.	.	-10
COc1cc(C(=O)NCCNc2nc3cc(C)ccc3cc2C#N)cc(OC)c1OC	-2	3699	3	5	10	4.3	-26
CC(C)c1ccc(/C=C2\NC(=O)NC2=O)cc1	-3	4188	1	10	4	3.6	-22
Cc1nc(N2CCOCC2)c2cc(-c3ccccc3)sc2n1	5	3306	0	12	-18	7.0	-21
O=C(NC(=S)Nc1ccc(N2CCCCC2)c(Cl)c1)c1cccs1	-9	6492	0	-5	-2	18	-17
O=C(NCc1ccccc1)NC1CCS(=O)(=O)C1 (stereo not drawn)	-14	2194	18	4	5	0.9	-19
C=CCSc1nnc2n(-c3ccccc3OC)c(=O)c3c4c(sc3n12)CCC4	-1	.	2	10	-7	-9.2	.
CCCCC(CC)CNCC(O)c1ccccc1 (stereo not drawn)	-6	3431	-6	12	1	-3.9	-22
O=C(N/N=C/c1coc2ccccc2c1=O)c1ccccc1Br	-6	10877	.	.	.	.	-13
O=C(c1ccc(Cl)c([N+](=O)[O-])c1)N(c1ccccn1)c1ccccn1	-1	9990	-2	4	7	2.9	-10
Cc1cnc(NC(=O)CSc2nnc3ncccn23)s1	2	5582	-4	-6	12	0.5	-19
O=C(COC(=O)c1ccc2c(c1)OCCO2)NCCc1ccc(F)cc1	.	3839	4	7	1	3.9	1
Cc1nn(C)c(C)c1NC(=O)C12CC3CC(CC(C3)C1)C2	4	2230	12	7	5	3.5	-19
COc1ccc(-c2cc(C3CC3)nc3sc(C#N)c(N)c23)cc1	2	3215	8	-1	10	16	-14
COc1cc(OC)c(C=O)c(OC(=O)N(C)C)c1	-3	4405	12	4	-7	8.4	-21
CS(=O)(=O)c1nc(S(=O)(=O)c2ccc(Cl)cc2)c(NCc2ccccn2)s1	6	4113	2	9	2	4.9	-30
O=C(O)/C=C\C(=O)Nc1ccc(N2CCN(c3cccc(Cl)c3)CC2)cc1	3	3883	-9	-7	0	3.2	-10
COc1cc(NC(=O)Cn2cnc3ccccc3c2=O)c(OC)cc1Cl	12	2514	-3	11	6	1.6	-5
Cc1c(C(=O)N2CCN(C(=O)c3ccco3)CC2)oc2c(Cl)cccc12	2	5970	10	0	2	5.8	-21

2 entries from above, as labelled records:
SMILES: Cc1cccc(Oc2ccc(S(=O)(=O)N3CCCCC3)cc2N)c1
  BJeLR viability: 0
  Autofluor counter: 5232
  Mtb hypoxia inh: -5
  Mtb hypoxia inh growth: 8
  Sa ugtP lethal: 18
  Sa RN4220 lethal: -2.7
  PrP 5UTR inh: -16

SMILES: Cc1ccc(Cl)cc1NC(=S)N(CCCN1CCN(C)CC1)Cc1cccs1
  BJeLR viability: -2
  Autofluor counter: 3056
  Mtb hypoxia inh: 14
  Mtb hypoxia inh growth: 5
  Sa ugtP lethal: 3
  Sa RN4220 lethal: 4.4
  PrP 5UTR inh: 2

Next part.
SMILES	BJeLR viability	Autofluor counter	Mtb hypoxia inh	Mtb hypoxia inh growth	Sa ugtP lethal	Sa RN4220 lethal	PrP 5UTR inh
Cc1ccc(Cn2c(=O)sc3ccccc3c2=O)cc1	-5	4715	6	7	-2	-0.5	-12
COC(=O)c1ccc(S(=O)(=O)N2CCC(C(N)=O)CC2)n1C	1	.	8	2	8	4.9	-14
Cc1ccc(S(=O)(=O)N(C)CC(=O)N2CCN(C(=O)c3ccco3)CC2)cc1	-8	3024	.	.	1	-0.2	-12
CC(C)NC(=O)c1cc(-c2ccco2)nn1-c1ccc(Cl)cc1	1	8490	8	9	-1	4.2	-16
CCOC(=O)Cn1nc(C)cc1NC(=O)c1cccnc1	-1	3424	3	-7	5	6.7	-23
CC1CCc2cc(F)ccc2N1C(=O)CCl (stereo not drawn)	.	4688	.	.	6	1.8	0
CCOc1ccc(CNC(=O)C2CCN(C(=O)N3CC(C)Oc4ccccc43)CC2)cc1 (stereo not drawn)	5	5791	-1	15	4	4.5	-26
COCCn1c(=O)[nH]c2cc(C(=O)NCCN3CCN(c4ccccc4)CC3)ccc2c1=O	6	3004	9	7	3	-1.9	-21
COc1ccc(-c2csc(NC(=O)C3CCCCN3S(=O)(=O)c3ccccc3)n2)cc1 (stereo not drawn)	-11	2436	2	4	-7	-0.8	-7
COCCCN1C(=O)N(c2ccc(F)cc2)C(=O)C1CC(=O)Nc1ccccc1 (stereo not drawn)	0	3627	-7	11	5	4.5	-20
CCOC(=O)C1(C)C(C(=O)OC)=C(c2ccc(OC)cc2)c2ccccc2N1C(=O)OC (stereo not drawn)	.	3561	6	7	5	5.5	-13
O=C(c1ccc(=O)oc1)N1CCN(c2ccc(F)cc2)CC1	0	9438	5	0	-6	5.7	-19
Cc1ccc(NC(=O)CSc2nc3ccccc3c3nc(CCn4cncc4C)nn23)c(C)c1	5	8845	8	-5	3	1.6	-12
O=C(COC(=O)Cc1ccccc1F)Nc1ccc(F)cc1F	-4	4513	3	15	1	5.2	-20
CCN(CC)c1ccc(-c2nc3cnccc3n2C)cc1	7	2683	.	.	-6	11	-104
C=CCN(c1ccccc1OC)S(=O)(=O)c1cccc(C(=O)Nc2nnc(C3CC3)s2)c1	.	.	-6	-4	4	4.2	-5
O=S(=O)(c1ccc(F)cc1)c1nc(-c2ccc(F)cc2)oc1NCCN1CCOCC1	0	2335	.	.	10	7.2	-28
O=C(COc1ccccc1)Nc1cccc(-c2nc3cc4ccccc4cc3[nH]2)c1	35	8758	4	12	-2	42	-61
Cc1nc(SCc2nc3ccccc3[nH]2)c2oc3cc([N+](=O)[O-])ccc3c2n1	.	3526	6	7	-1	12	-22
CC1CCCC(C)N1C(=O)CSc1nnnn1C1CCCC1 (stereo not drawn)	-2	4400	1	-2	5	6.1	1
CCOc1ccc(-c2c(C(=O)NN=C(C)c3cccnc3)nnn2-c2nonc2N)cc1	.	.	1	-11	0	4.4	.
Cc1ccc(Cl)cc1N1CCN(Cc2nnnn2Cc2ccco2)CC1	-10	2816	.	.	.	.	-4
Cc1onc(-c2ccccc2)c1C(=O)Nc1nnc(CC(C)(C)C)s1	-4	3788	2	-2	8	5.2	-25
CCOC(=O)N1CCN(C(=S)NC(=O)c2c(-c3c(Cl)cccc3Cl)noc2C)CC1	8	2015	2	-10	4	-1.1	-9
O=C(c1cnn2c(C(F)(F)F)cc(-c3cccs3)nc12)N1CCCC1	0	4766	0	1	7	1.2	-11
COc1ccc(Cl)cc1C(=O)NCCCn1ccnc1	-15	3301	6	1	10	4.3	-65
O=C(CC(=O)NC1CCCCC1)NN=Cc1ccccc1[N+](=O)[O-]	.	.	2	12	14	1.7	.
CC[C@]12c3[nH]c4ccc(OC)cc4c3CCN1C(=O)C(CC(=O)NCCc1ccccn1)C[C@@H]2C(=O)N1CCN(C(=O)C2CC2)CC1 (stereo partly drawn)	.	3504	-3	4	-7	1.3	-7
CNc1nc2[nH]c(=O)c3c(c2s1)OC(N)=C(C#N)C3c1ccccc1 (stereo not drawn)	-4	2261	.	.	.	.	-21
O=C1CN(S(=O)(=O)c2cccc(Cl)c2Cl)c2ccccc2N1	-2	6400	-6	2	3	5.3	-10
COc1ccc(CNC(=S)Nc2ccccc2)cc1	-7	4125	17	1	0	-1.9	-17
Cn1cnnc1-c1cccc(NC(=O)c2cc(F)c(F)cc2Cl)c1	4	4414	16	11	4	3.2	-23
CCCN(C(=O)COC(=O)c1nc2nc(C)cc(C)n2n1)C1CCS(=O)(=O)C1 (stereo not drawn)	.	3624	8	-4	-3	2.8	-25
CCOc1ccc(Nc2nc(Cc3nnc(SCC(=O)NC4CCCCC4)n3C)cs2)cc1	2	9101	3	6	9	5.7	-22
CC(=O)Nc1ccc(SCC(=O)Nc2cc(C)on2)cc1	-9	4309	8	2	5	0.4	-16
COC(=O)c1c([N+](=O)[O-])c(OC)c(OC)c(OC)c1[N+](=O)[O-]	1	3107	10	2	19	11	-16
CN(C)C1=NCCN1CCCCc1ccccc1	.	2853	5	13	16	14	4
Cc1ccc(OCC(=O)N(c2ccccn2)C2CCCCC2)c(C)c1	12	2038	10	6	11	9.3	-15
Cc1cc(C)n(Cc2ccc(C(=O)NCc3ccco3)o2)n1	-14	3330	2	-7	-4	-18	-8

Another view of some results above.
Cc1ccc(OCC(=O)N(c2ccccn2)C2CCCCC2)c(C)c1
  BJeLR viability: 12	Autofluor counter: 2038	Mtb hypoxia inh: 10	Mtb hypoxia inh growth: 6	Sa ugtP lethal: 11	Sa RN4220 lethal: 9.3	PrP 5UTR inh: -15

CN(C)C1=NCCN1CCCCc1ccccc1
  BJeLR viability: .	Autofluor counter: 2853	Mtb hypoxia inh: 5	Mtb hypoxia inh growth: 13	Sa ugtP lethal: 16	Sa RN4220 lethal: 14	PrP 5UTR inh: 4

COc1ccc(CNC(=S)Nc2ccccc2)cc1
  BJeLR viability: -7	Autofluor counter: 4125	Mtb hypoxia inh: 17	Mtb hypoxia inh growth: 1	Sa ugtP lethal: 0	Sa RN4220 lethal: -1.9	PrP 5UTR inh: -17
